Screens from PubChem.
LASV entry inh – inhibitors of Lassa virus binding or cell entry; Lassa virus pseudotype entry inhibition, cell reporter; control for the full effect not named in the record; Potency, µM (doses to about 37.9 µM), inactives show at the highest dose activity change, negative = inhibition, usual class: inhibitors; 300,000 compounds, 1.2% hits; active means well fitted inhibition curve with a large enough effect; inconclusive means small, poorly fitted or top-dose-only effect, or effect the other way; inactive means flat fitted curve, though single readings scatter; tested in HEK293 cells; also: % is scaled to controls: 0 for no effect and ±100 for the full control effect; nearly all actives have a fitted effect of over 50% in size; luciferase read-out
Cruzain noTriton – blocks cruzain activity in detergent-free assay | 200,000 compounds, 2.3% hits | P25779 | AID 1476 | purified cruzain, Z-FR-AMC fluorescence, no detergent | Potency, µM, for inactives: max response, negative = inhibition, actives largely listed as inhibitors;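 also: plate controls were enzyme without inhibitor for no effect and buffer without enzyme for full effect; nearly all actives have a fitted effect of over 40% in size; top concentration of the series not given in the record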
Target sequence (P25779 123-467 limits assumed): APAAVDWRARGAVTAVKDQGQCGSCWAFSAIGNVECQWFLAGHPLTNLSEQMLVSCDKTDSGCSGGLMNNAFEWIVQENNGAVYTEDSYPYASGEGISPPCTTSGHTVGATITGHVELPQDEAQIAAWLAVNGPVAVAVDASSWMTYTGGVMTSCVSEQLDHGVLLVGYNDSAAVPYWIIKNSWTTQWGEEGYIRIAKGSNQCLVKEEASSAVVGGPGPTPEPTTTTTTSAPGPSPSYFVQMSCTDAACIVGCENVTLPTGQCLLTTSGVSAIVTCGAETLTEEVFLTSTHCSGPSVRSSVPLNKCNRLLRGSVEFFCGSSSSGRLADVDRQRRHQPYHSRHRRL
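Purified cruzain at 1.5 nM, pre-incubated 15 min with compound at room temperature in 100 mM sodium acetate pH 5.5, 5 mM DTT, 0.00005% Triton X-100. Reaction started with 2 uM Z-FR-AMC; AMC fluorescence increase over 60 s gives rate.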
NS1 inh – blocks influenza NS1 protein function | S. cerevisiae slowed by influenza A NS1, growth recovery by OD600 | Potency, µM (titrated, usually from 46.1 µM), without a hit: top-dose activity, positive = more growth | 270,000 compounds, 0.4% hits | AID 2326; active means well fitted rising curve with a large enough effect; inconclusive means small, poorly fitted or top-dose-only effect; inactive means no such curve, though single readings can be large or run the other way; also: nearly all actives have a fitted effect of over 50% in size
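OD600 was taken as the measure of yeast growth restored by compound in an NS1-expressing S. cerevisiae strain. Cells had been washed out of glucose medium and diluted 1:100 into galactose -URA medium, pH 6.0.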
StopGo reporter – lowers the luciferase signal of an FMDV 2A StopGo reporter | human cells with a luciferase reporter of 2A StopGo recoding; control for the full effect not named in the record | Potency, µM (doses to about 57.9 µM), for the others: at the top dose signal change, negative = less light | 410,000 compounds, 1.2% hits | AID 1159524; active = well fitted falling curve with a large enough effect; inconclusive = small, poorly fitted or top-dose-only effect; inactive = no such curve, though single readings can be large or run the other way; tested in HEK293T cells; also: % is scaled to controls: 0 for no effect and ±100 for the full control effect; nearly all actives have a fitted effect of over 45% in size; luciferase light after 4 h
RE007 growth inh – less growth of the S. pombe RE007 Vpr strain; S. pombe RE007 Vpr strain, BacTiter-Glo ATP luminescence, 24 h; control for the full effect not named in the record; Potency, µM (highest dose often 92.2 µM), without a hit: at the highest dose activity change, negative = less growth; 360,000 compounds, 0.21% hits; active = well fitted falling curve with a large enough effect; inconclusive = small, poorly fitted or top-dose-only effect; inactive = no such curve, though single readings can be large or run the other way;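 also: % is scaled to controls: 0 for no effect and ±100 for the full control effect; nearly all actives have a fitted effect of over 50% in size; the assay follows cell death caused by Vpr and the record does not say whether a fall means rescue or toxicity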
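Fission yeast strain RE007, carrying one chromosomally integrated HIV-1 vpr copy, was seeded at OD 0.01 in PMG+AL medium with 23 nL pinned compound. After 24 h at 30 °C and 99% humidity, viability was read by BacTiter-Glo luminescence.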
SARS PLpro yeast – SARS-CoV PLP inhibition in yeast. S. cerevisiae expressing SARS-CoV PLpro, growth rescue; control for the full effect not named in the record. Potency, µM (top dose mostly 32.9 µM), for inactives: at the highest dose activity, positive = growth rescue. 330,000 compounds, 0.19% hits. AID 485353; active means well fitted rising curve with a large enough effect; inconclusive means small, poorly fitted or top-dose-only effect; inactive means no such curve, though single readings can be large or run the other way; also: 0% is about no effect; nearly all actives have a fitted effect of over 55% in size; growth read by luminescence after 48 h
MARV entry inh – inhibitors of Marburg virus binding or cell entry. Marburg virus pseudotyped entry inhibition, cell reporter; control for the full effect not named in the record; about a third of the inactives were read at about 46 µM. Potency, µM (doses to about 37.8 µM), without a hit: at the top dose activity change, negative = inhibition, most hits filed as inhibitors. 300,000 compounds, 1.8% hits. AID 540276; active = well fitted inhibition curve with a large enough effect; inconclusive = small, poorly fitted or top-dose-only effect, or effect the other way; inactive = flat fitted curve, though single readings scatter; tested in HEK293 cells; about a fifth of its hits are not listed in these tables; also: % is scaled to controls: 0 for no effect and ±100 for the full control effect; luciferase read-out
Cruzain Triton – inhibitors of Trypanosoma cruzi cruzain with detergent. P25779. purified cruzain, Z-FR-AMC fluorescence, 0.01% Triton. Potency, µM, without a hit: max response, negative = inhibition, hits mostly inhibitors. 200,000 compounds, 0.43% hits. AID 1478;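 also: plate controls were neutral wells for no effect and buffer without enzyme for full effect; nearly all actives have a fitted effect of over 40% in size; top concentration of the series not given in the record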
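Compounds were screened in titration against cruzain (1.5 nM) with 0.01% Triton X-100 to counter colloidal aggregation. Activity was the AMC fluorescence increase over 60 s after adding 2 uM Z-FR-AMC at pH 5.5.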
Starred values were filed as active, the others as inactive; ? = inconclusive; . = no result given; & = joins results of further samples; [ ] = another dose, or the depositor's remark. Unless noted, calls follow the shape of the dose curve; as a rule, active = well fitted curve in the direction sought with a large enough effect; inconclusive = small, poorly fitted or top-dose-only effect, or another doubt; inactive = no such curve, though single readings can be large; an effect the other way counts as inactive or inconclusive. Potency is read from the fitted curve at half-maximal effect. Rows were taken by chance (roughly 4.6% active in at least one column).

smiles	LASV entry inh	MARV entry inh	NS1 inh	Cruzain noTriton	StopGo reporter	SARS PLpro yeast	Cruzain Triton	RE007 growth inh
Cc1ccccc1N1C(=O)c2ccccc2C1Nc1cccnc1 (stereo not given)	.	.	1%	-6%	-9%	-7%	0.7%	-2%
COc1ccc(/C(C#N)=C/c2c(-c3ccc(Cl)cc3)nc3c(C)cccn23)cc1	0%	2%	-5%	?	?	-27%	3.0%	6%
O=S(=O)(NCc1csc(-c2cccnc2)n1)c1ccc(F)cc1	-19%[46.1 µM]	23%[46.1 µM]	-1%	.	1%	-3%	.	2%
Cc1cc(/C=C2/NC(=O)NC2=O)c(C)n1-c1cccnc1	-22%	5%	4%	13%	29%	-1%	-2.7%	-14%
CC(C)Cn1nc(NC(=O)C2CCCO2)c2cc3ccccc3nc21 (stereo not given)	-12%	?	-74%	-1%	-19%	-1%	1.7%	22%
C=CCOc1ccc(/C=C2\SC(N)=NC2=O)cc1OC	.	.	2%	.	0%	-1%	.	-3%
COc1ccc(C(=O)N/N=C(\C)CC(=O)Nc2ccc3c(c2)OCO3)cc1	2%	?	-6%	.	-5%	0%	.	-10%
CC(=O)Nc1ccc(NC(=O)COC(=O)c2c(C)nn(-c3ccccc3)c2C)cc1	?	2%	-1%	-2%	-9%	-6%	0.1%	0%
O=C(O)c1cccc(N2C(=O)c3ccc(Oc4ccc(Cl)cc4)cc3C2=O)c1	-3%	5%[46.1 µM]	-1%	.	14%	0%	.	7%
COc1cc(OC)c(NC(=O)CCNS(=O)(=O)c2ccc3c(c2)oc(=O)n3C)cc1Cl	1%	8%	.	-2%	-18%&-9%	0%	-1.7%	5%
CCn1ccnc1CN1CCCC(C(=O)c2cc(C)c(OC)c(C)c2)C1 (stereo not given)	.	.	0%	.	-29%	0%	.	-23%
CN(C)c1ccc(C=C2C(=O)OC(C)(C(C)(C)C)OC2=O)cc1 (stereo not given)	-15%	-6%	-43%	-3%	7%	1%	-4.6%	0%
CC(=O)Nc1cc2c(cc1NC(=O)Cn1nc(-c3ccccc3F)ccc1=O)OCCO2	6%	-21%	-6%	-1%	-23%	3%	5.5%	-1%
Cc1ccc(NC(=S)N/N=C/c2c(Cl)cccc2Cl)c(C)c1	?	?	-8%	?	50%[activator]	3%	-8.9%	-7%
COc1ccc(-c2nn(CC(=O)N3CCCCC3)c(=O)c3ccccc23)cc1	.	.	4%	4%	.	-5%	2.0%	.
O=C(NNC(=O)c1ccc(NC(=O)c2ccccc2)cc1)c1ccc(F)cc1	.	.	10%	.	-5%	-2%	.	-3%
CC(=O)Nc1ccc(-c2nn[nH]n2)cc1Cl	21%	7%	-10%	-9%	4%	1%	7.3%	16%
CCOC(=O)c1csc(-c2sccc2Br)n1	.	-5%	-9%	.	14%	-1%	.	?
Cc1ccccc1OC(C)C(=O)Nc1cccnc1 (stereo not given)	.	.	2%	.	-27%	3%	.	-3%
CCOc1ccc(CC(=O)NCCc2csc(-c3ccc(C)cc3)n2)cc1	-25%[46.1 µM]	.	.	2%	-4%	.	-6.2%	.
CO/N=C/c1cn(-c2ccc(Cl)cc2)nn1	6%	16%[46.1 µM]	.	.	26%	-2%	.	-8%
CNC(=O)c1[nH]cnc1C(=O)NCC(=O)OCc1ccccc1	.	.	1%	.	-7%	9%	.	0%
CC(C)OC(=O)CC12CN(C)CC(CC(=O)OC(C)C)(CN(C)C1)C2=O	4%	?	1%	-2%	-6%	-3%	8.3%	-4%
O=C(/C=C/c1ccco1)N/C(=C\c1ccco1)C(=O)NCCc1nc2ccccc2[nH]1	12%	-1%	?	-4%	4%	8%	-12%	-5%
Cc1ccccc1NC(=O)CN(C)S(=O)(=O)c1cccs1	?	-8%[46.1 µM]	-8%	.	-3%	-1%	.	-4%
COc1cc(/C=N/N=C2/C(=O)Nc3ccccc32)ccc1O	16%	?	-19%	-14%	-25%	9%	-6.3%	-24%
CCc1ccccc1NC(=O)c1cc(S(=O)(=O)N2CCc3ccccc32)ccc1F	?	.	.	-6%	0%	.	0.6%	.
CCCn1nnc(NC(=O)c2ccc(OC)cc2)n1	8%	1%	0%	-4%	42%[activator]	?	0.1%	4%
CCCCCCC(=O)NC(Nc1ccc(S(N)(=O)=O)cc1)C(Cl)(Cl)Cl (stereo not given)	-9%	?	-3%	8%	-27%	2%	-5.0%	-5%
CC1CC2(CC(C)(C(=O)CSc3n[nH]c(-c4ccccc4Cl)n3)OC2=O)C(=O)O1 (stereo not given)	?	?	-10%	-4%	-24%	9%	-2.4%	5%
Cc1ccccc1N(CC(=O)N1CCN(c2ccccc2)CC1)S(C)(=O)=O	-13%	-4%	-1%	-8%	-10%	9%	3.0%	8%
O=C1CCN(CCCc2ccccc2)CCN1[C@H](CO)Cc1ccccc1	.	.	-9%	.	-5%	-1%	.	24%
O=C1CCC([N+](=O)[O-])C(c2ccccc2F)N1 (stereo not given)	.	.	-1%	.	-10%	0%	.	7%
CCOC(=O)N1CCN(C(=O)CN(Cc2ccccc2)S(=O)(=O)c2ccc(OC)c(C)c2)CC1	?	1%&28%	-13%	?	0%	1%	0.0%	23%
Cc1cc(C)n2nc(SCC#N)nc2n1	.	.	2%	5%	0%	13%	-2.0%	-7%
COc1cccc(CNC(=O)c2ccc(S(=O)(=O)N3CCCC3)cc2)c1	?	-5%	-2%	1%	-5%	2%	4.6%	3%
CC(=O)Nc1ccccc1C(=O)OCc1ccc(C(=O)c2ccccc2)cc1	?	?	0%	1%	?	-2%	-3.0%	1%
CC[C@@H](O)C[C@H]1CCC[C@@]2(C[C@@H]3OC(=O)/C=C/[C@@](C)(O)[C@@H](O)[C@H](C)[C@@H](O)[C@H](OC4CCC(N(C)C)C(C)O4)[C@@H](O)[C@](C)(O)CCCCC/C=C/[C@@H]4CC(C)(C)O[C@@]4(O)C[C@H](O2)[C@H]3C)O1 (stereo not given in full)	.	-25%	.	.	?	.	.	?
CCN(CC(=O)Nc1c(F)cccc1F)C(=O)CN(C)S(=O)(=O)c1ccc(F)cc1	-16%	8%	.	.	-8%	-1%	.	16%
COc1cc(S(=O)(=O)Nc2c(C)nn(C)c2C)ccc1NC(C)=O	2%	0%	.	.	3%	-1%	.	-11%
COc1ccc(O)c(/C=C2/SC(=S)N(Cc3ccccc3)C2=O)c1	.	.	?	.	-24%	0%	.	0%
COc1cc(CN2CCN(CC3CC3)CC2CCO)cc(OC)c1 (stereo not given)	?	8%	1%	.	-10%	1%	.	25%
COc1ccc(CC(=O)Nc2nc(-c3ccncc3)cs2)cc1	?	?	3%	.	-7%	-3%	.	-2%
Cc1ncc(CO)c2cc(C(=O)Nc3cccc(F)c3)c(=Nc3cccc(C(N)=O)c3)oc12	.	.	-2%	.	-14%	1%	.	5%
Cc1nn(S(=O)(=O)N2CCOCC2)c(C)c1Br	11%[46.1 µM]	-1%[46.1 µM]	-3%	.	-11%	-1%	.	0%
COc1ccc(C2C(=O)N(C3CCC(C)CC3)CC(=O)N2CCc2ccccc2)cc1OC (stereo not given)	-15%[46.1 µM]	.	.	16%	-2%	.	0.5%	.
CC(C)(C)NS(=O)(=O)c1ccc(NC(=O)C2CCCO2)cc1 (stereo not given)	-1%[46.1 µM]	22%[46.1 µM]	18%	.	-4%	0%	.	1%
CC1CCC(C(=O)NC(C(=O)NCCN2CCC(C)CC2)C(C)C)CC1 (stereo not given)	9%	?	-2%	-27%	-12%	?	-29%	9%
COc1cccc(NC(=O)CSc2nnc(-c3cccnc3)o2)c1	?	6%	.	.	3%	3%	.	9%
O=C(C1CCCO1)N1CCc2ccccc21 (stereo not given)	17%	24%	-1%	-8%	12%	3%	2.9%	33%
CCCN(c1ccc(C(C)C)cc1)S(=O)(=O)c1ccc2c(c1)oc(=O)n2CC(=O)OCC	-16%[46.1 µM]	3%[46.1 µM]	.	15%	-11%	.	-5.1%	.
COc1ccc(COC(=O)C2CCN(S(=O)(=O)c3cccs3)CC2)cc1	-3%	4%	.	.	-19%	2%	.	9%
C[C@@H]1CCC[C@]2(O[C@H](CCO)C[C@H](O)[C@H]2O)O1	.	.	13%	.	0%	5%	.	-15%
O=C(COC(=O)CNC(=O)c1sc2ccccc2c1Cl)Nc1cc(Cl)cc(Cl)c1	-13%	13%[46.1 µM]	.	.	0%	0%	.	-14%
O=C(COc1ccc2ccccc2c1Br)Nc1ccncc1	?	?	-12%	.	-19%	?	.	-29%
COc1ccc(C)cc1Nc1n[n+](-c2ccccc2)c(-c2ccc(C(=O)O)cc2)s1	.	.	22%	.	1%	0%	.	-5%
COc1ccc(CCNC(=O)CCn2c(=O)c3ccccc3n(Cc3ccccc3)c2=O)cc1OC	24%[46.1 µM]	1%[46.1 µM]	.	-10%	-5%	.	-0.5%	.
CCCCCc1ccc(-c2cn(Cc3ccc4ccccc4c3)nn2)cc1	.	.	14%	.	-17%	6%	.	10%
COC(=O)C(C)N1C(=O)S/C(=C/c2cc(C)n(-c3ccccn3)c2C)C1=O (stereo not given)	.	-1%	6%	12%	10%	10%	-5.6%	.
CCOc1ccc(N=CNc2ccc(OCC)cc2)cc1	6%[46.1 µM]	-22%&-22%[46.1 µM]	3%	.	-15%	2%	.	-4%
COc1cccc(CN2CCc3nc(Nc4ccc5c(c4)OCCO5)ncc3C2)c1	21%[46.1 µM]	.	.	-4%	3%	.	-4.1%	.
